Bead autofluor – counter-screen for toxin protease inhibitors: compound fluorescence; compound autofluorescence counterscreen, microsphere flow cytometry; hits give high values; fluorescence intensity (test concentration not listed); 360,000 tested, 3.1% active; AID 624483;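 active = at least 3 SD above the mean of all compounds, about 16000 in these data; inconclusive = too few beads counted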;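 note: 100 nL of 1 mM stock went into each well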
Mtb hypoxia inh – Mtb hypoxia fluorescent reporter inhibition. fluorescence inhibition, % (test concentration not listed). 300,000 tested, 0.1% active. M. tuberculosis hypoxia-regulated fluorescent reporter, fluorescence;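 active = 35 to 45% if threefold the growth effect, above 45% if 1.5-fold the growth effect; inactive = the rest, general growth blockers included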;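 note: wells of about 50 µL received 100 nL stock; 0% = vehicle wells and 100% = reference inhibitor wells; whole bacteria with a GFP reporter of the hypoxia response; strong numbers were not always called active; many hits fall short of the cut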
BJeLR lethal – kills HRASV12-expressing BJeLR cells | BJeLR (HRASV12) viability, CellTiter-Glo ATP luminescence, 48 h; reference of the scale not given here | inhibition, % (test concentration not listed) | 300,000 tested, 0.17% active;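 active = replicate mean above 50%; inconclusive = above 50% but judged a plate artefact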;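 note: 50 nL library stock added to about 25 µL; numbers are from one replicate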
Sa ugtP lethal – kills S. aureus RN4220 lacking UgtP; 330,000 tested, 0.54% active; S. aureus RN4220 ugtP deletion, OD600 growth, 16 h; some inactives read as strong as hits; growth inhibition, % (no concentration beside the values);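 active = z-score under -3 and OD600 up to 0.15 on both plates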;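 note: plate controls were untreated wells for no effect and antibiotic for full effect; wells of about 80 µL received 100 nL stock; the first replicate is given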
PrP UTR inh – inhibition of PrP 5' UTR reporter expression; AID 488862; inhibition, % (test concentration not listed); 340,000 tested, 0.35% active; cell-based PrP 5' UTR mRNA reporter, plate reader;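 active = every replicate at 50% or more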;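 note: 0 = median of the neutral control wells; tested in H4 reporter cells; numbers are from one replicate; inactives centre near -14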
RN4220 kill – kills Staphylococcus aureus RN4220 | S. aureus RN4220 growth, OD600, 16 h | inhibition, % (concentration not given with the values) | 330,000 tested, 0.33% active | AID 1259311;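 active = z-score of -3 or lower and OD600 up to 0.18 on both plates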;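 note: plate controls were untreated cells for no effect and reference antibiotic for full effect; stock transfer was 100 nL into about 80 µL; one replicate is shown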
Mtb hypoxia inh growth – recorded beside Mtb hypoxia inh, whose call it bears; growth inhibition, %; measured here: M. tuberculosis growth (absorbance);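 0% = vehicle and 100% = reference antibiotic; read after six days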
* = called active by the depositor; ? = inconclusive; / = no result given. Outcome played no part in choosing rows; 4.1% or so of the library scored in one or more.

SMILES	Bead autofluor	Mtb hypoxia inh	Mtb hypoxia inh growth	BJeLR lethal	Sa ugtP lethal	PrP UTR inh	RN4220 kill
Cc1ccc(-n2nnnc2-c2cnc3cc4c(cc3c2C)OCO4)cc1	9129	4	4	1	0	0	0.6
CCc1cc(C(=O)N/N=C/c2ccc(O)cc2)c2ccccc2n1	4193	/	/	2	/	6	/
CC1CCCCN1C(=O)COC(=O)CSc1ccc(C(N)=O)cc1[N+](=O)[O-] (stereo unspecified)	5604	-1	6	/	4	-13	2.5
CCOC(=O)c1c(CN(C)C)oc2cc(CN(C)C)c(O)c(CSc3ccccc3)c12	/	3	15	-11	6	-18	7.4
COc1ccc(S(=O)(=O)N2CCOCC2)cc1NC(=O)CSc1cc(C)ccc1C	/	-6	-1	/	0	-6	2.8
O=C(O)CN1C(=O)/C(=C\c2cccc(OCc3ccccc3F)c2)SC1=S	3900	15	1	5	-8	3	0.7
CC(C)(C)N/N=C1\CC(c2ccccc2)Oc2ccccc21 (stereo unspecified)	2716	/	/	-3	/	-66	/
CC(=O)c1cccc(CN2CCC(n3nccc3NC(=O)CCCc3ccccc3)CC2)c1	5792	-1	-2	-1	3	-1	2.6
CC(=O)NCCc1ccc(S(=O)(=O)NCc2ccc3c(c2)OCO3)cc1	10414	-1	5	-1	-5	-31	7.7
CCOC(=O)Cn1c(=NC(=O)c2nc3ccccc3s2)sc2cc(S(N)(=O)=O)ccc21	2027	4	-1	-7	6	-8	5.9
COc1ccc(C(=O)Nc2cc(C(=O)O)cc(C(=O)O)c2)cc1Cl	4397	16	16	7	6	-13	2.4
CCOC(=O)c1cc(C(=O)Nc2cccc(C)c2)nn1C	7891	9	1	21	8	-66	2.0
CC(C)C1C(C#N)=C(N)SC(N)=C1C#N	15585	12	3	2	1	-8	3.9
Cc1ccc(-c2nnc(SCC(=O)N3c4ccccc4NC(=O)C3(C)C)n2N)cc1	8800	5	10	-6	-5	-54	1.9
O=C(Nc1ccc(Cc2ccncc2)cc1)c1ccc([N+](=O)[O-])o1	4203	/	/	22	23	-46	22
O=C(NCC1CCCO1)c1ccc(Br)c(S(=O)(=O)N2CCOCC2)c1 (stereo unspecified)	8797	-7	6	/	-1	-1	-2.5
O=C(NCC(=O)N1CC=C(c2ccccc2)CC1)c1ccccc1Br	5942	1	-1	-6	-1	-10	-1.3
CN(C)S(=O)(=O)c1cccc(NC(=O)COC(=O)/C=C/c2cccs2)c1	2259	11	7	-2	8	-21	6.5
CCCCNC(=O)c1nn(-c2ccccc2OC)c(=O)c2ccccc12	2016	/	/	-7	-8	-13	-5.3
CCC(=O)Nc1nc2ccc([N+](=O)[O-])cc2s1	/	6	16	1	-1	-42	0.5
NC(=O)c1oc2ccccc2c1NC(=O)CCc1ccccc1	5213	7	3	8	7	-4	1.6
CCOc1ccccc1C=NNC(=O)CNC(=O)c1cccs1	/	12	3	/	5	/	2.8
Nc1ccc(-n2nncc2-c2ccccc2)cc1	2877	19	-21	3	-3	-19	-16
Cc1ccccc1Nc1nc(N)nc(CSc2ccccc2)n1	2512	12	5	3	-1	-83	6.7
COC(=O)c1c(-c2ccc(C)cc2)csc1NC(=S)NC(=O)c1ccc(F)cc1	2465	5	7	6	8	5	2.9
CCN(c1ccc(NC(=O)COC(=O)c2ccc3ccccc3n2)cc1)C(C)C	7963	6	3	0	-3	/	0.2
CCCCn1c(SCC(=O)Nc2cc(C)on2)nnc1-c1cccs1	?	14	1	-12	0	4	11
CCN(CC)c1ccc(/C=N/N2CCOCC2)cc1	3159	/	/	-3	/	-71	/
CCn1c(SCC(=O)N2CCc3ccccc32)nnc1-c1ccco1	4390	8	7	1	1	-4	4.5
O=C(Oc1ccc(N2C(=O)CCC2=O)cc1)c1ccco1	2978	/	/	11	7	-96	2.0
CC(C)OCCCNC(=O)C1CCN(S(=O)(=O)c2ccc3nc4c(c(C(=O)O)c3c2)CCCCC4)CC1	5415	3	-1	10	4	-10	5.3
Cc1ccc(NC(=O)CN(C)Cc2cc(=O)n3ccsc3n2)cc1	5512	1	8	-11	-3	-25	4.5
CN1CCN(C(=S)c2ccc(Br)cc2)CC1	2595	2	-4	12	1	-24	1.5
O=C(c1cccc(F)c1)N1CCCC(C(=O)N2CCCC2)C1 (stereo unspecified)	6733	6	7	0	9	-14	2.8
Cc1cc(=O)[nH]c(SCC(=O)NCCC2=CCCCC2)n1	4255	-8	6	5	8	-38	1.7
Cc1cc(=O)[nH]c(SCC(=O)N2CC3(C)CC2CC(C)(C)C3)n1 (stereo unspecified)	2868	13	3	/	12	-10	6.7
O=C(CCS(=O)(=O)c1ccc(Cl)cc1)Nc1nc(-c2ccncc2)cs1	6307	2	-3	-9	10	1	-0.3
COc1cc(/C=C2/C(=O)NN(c3ccc(Cl)c(Cl)c3)C2=O)cc([N+](=O)[O-])c1O	3936	-7	5	0	1	/	0.3
COc1ccc(C(=O)Nn2c(SCC(=O)NCc3ccco3)nc3ccccc3c2=O)cc1	3156	10	2	14	7	44	0.1
COc1cccc(/C=N/NC(=S)Nc2cccnc2)c1	4399	/	/	5	/	-16	/
O=C(N/N=C\c1ccc([N+](=O)[O-])s1)c1cncc(Br)c1	1963	/	/	18	/	9	/
O=C(CCCN1C(=O)/C(=C\c2cccs2)SC1=S)Nc1ccc(C(=O)O)cc1	3302	6	11	5	5	-9	3.9
CCc1ccc(NC(=O)C(C)Sc2ccc(S(=O)(=O)N3CCN(C)CC3)cn2)cc1 (stereo unspecified)	3403	7	8	/	8	-25	5.5
COc1ccccc1N1CCN(CCCNC(=O)Nc2ccccc2C)CC1	4495	/	/	-11	0	3	-1.6
COCCSc1ccccc1C(=O)Nc1cccnc1	4552	/	/	4	4	1	-3.7
O=C(Nc1ccc(Cl)cc1)c1ccc2snnc2c1	5792	1	9	5	-5	-38	-4.6
O=C(NCc1ccncc1)C(F)(F)C(F)(F)C(=O)NCc1ccncc1	2568	11	7	-1	3	-8	2.4
CC(=O)Nc1ccc(NC(=O)CCN2C(=O)C3CC=CCC3C2=O)cc1 (stereo unspecified)	8477	-3	6	/	-3	-8	-2.4
COc1ccc(-n2c(O)c(/C=N/NS(=O)(=O)c3ccc(C)cc3)c3ccccc3c2=O)cc1OC	4926	/	/	25	/	-13	/
Cc1ccc(C2=NS(=O)(=O)N(C)C(C(=O)Nc3ccc(F)cc3F)=C2)cc1	6140	-1	3	5	-19	-16	5.1
More compounds follow.
SMILES	Bead autofluor	Mtb hypoxia inh	Mtb hypoxia inh growth	BJeLR lethal	Sa ugtP lethal	PrP UTR inh	RN4220 kill
CCN(CC(=O)Nc1ccc(NC(C)=O)cc1)C(=O)c1cn(-c2ccccc2)nc1-c1cccs1	?	-5	-1	/	-5	-14	1.4
COC(=O)c1sc(N)c(C(=O)OC)c1Cn1ncc(Cl)c(Cl)c1=O	2981	15	7	-8	5	11	3.4
C=CCNc1nc2ccccc2nc1NS(=O)(=O)c1ccc(F)cc1	3774	5	-1	5	-6	-6	0.0
CCc1nnc(NC(=O)C2CCCN(c3nc4ccccc4s3)C2)s1 (stereo unspecified)	19697*	11	3	1	-3	-3	6.6
CC(C)c1ccc(OCC(O)CN2CCCC2)cc1 (stereo unspecified)	4101	3	9	10	14	-48	3.6
Cc1ccn2c(C(=O)CSc3ccccc3)c(C)nc2c1	4235	/	/	-4	-7	-41	3.1
COc1cc(/C=N/NC(=O)c2c(-c3c(Cl)cccc3Cl)noc2C)ccc1OCC(N)=O	5933	/	/	2	/	-18	/
CCC(=O)Nc1cccc(NC(=O)c2ccccc2Br)c1	2419	12	7	21	15	-11	5.8
Cc1noc(C)c1C(=O)NCCCN1CCCC1=O	12474	-1	-5	-6	-1	-13	-0.7
CCc1ccc(N=C2N=C(N)c3ccccc32)cc1	2438	/	/	-3	12	-49	0.9
CC(c1ccc(F)cc1)n1cc(C(=O)NCc2ccc3c(c2)OCO3)nn1 (stereo unspecified)	4305	/	/	1	-1	-11	-4.5
COc1cc(/C=N/n2c(=S)[nH]nc(C)c2=O)cc([N+](=O)[O-])c1O	4764	/	/	2	/	-12	/
CCN(Cc1cc2cc(OC)ccc2[nH]c1=O)C(=O)c1ccncc1	15656	3	4	-5	0	7	1.0
NC(=O)c1cc(S(=O)(=O)N2CCCC2)ccc1OCc1ccc(F)cc1	6136	/	/	-2	/	-12	/
N#Cc1c(Cl)nc2c(c1C#N)CCCC2	4549	-1	2	-6	2	-19	1.8
CC(C)(C)OC(=O)[C@H](Cc1ccccc1)NC(=O)c1nc[nH]c1C(=O)NCC(=O)OCc1ccccc1	3678	/	/	12	/	-9	/
CC(C)CN(C(=O)c1ccc(Br)o1)C1CCS(=O)(=O)C1 (stereo unspecified)	4368	5	0	7	3	-18	-0.3
CC(=O)N1CCC(N(CCN2CCOCC2)C(=S)Nc2ccccc2C)CC1	2106	0	4	-15	8	-28	2.9
N#C/C(C(N)=O)=C1/SC=C(c2ccccc2)N1c1ccccc1	/	1	-3	-5	-1	/	0.9
O=C(c1ccccc1F)N1C(=O)c2cccc3cccc1c23	4521	-11	1	6	19	-16	4.9
Cc1cc(NC(=O)CSc2ncn[nH]2)no1	2185	15	1	2	4	-22	3.9
Cc1ccc(C)c(NS(=O)(=O)c2ccc3oc(=O)ccc3c2)c1	3201	8	8	2	3	-15	8.9
N#CCSc1nc(-c2ccccc2)cs1	5050	/	/	4	-13	-30	7.4
CS(=O)(=O)c1nc([N+](=O)[O-])nn1CCCc1ccccc1	3810	7	6	6	25	-14	-2.3
C(=N\N(c1ccccc1)c1ccccc1)/c1ccc2c(c1)OCO2	8298	/	/	2	/	-19	/
CC(C)(C)c1ccc(C=NNc2nncn2N)cc1	/	-2	3	/	2	/	-1.0
COC(=O)N1C(=O)[C@](CC(C)C)(c2ccccc2)N1C(=O)OC	3289	/	/	-9	/	-15	/
Cc1c(NC(=O)C(C)Oc2cccc(F)c2)c(=O)n(-c2ccccc2)n1C (stereo unspecified)	/	7	7	/	11	/	4.8
COc1ccc(OC)c2sc(N3CCN(C(=O)c4ccc5ncsc5c4)CC3)nc12	?	8	7	1	5	-19	2.5
O=S(=O)(NCCCCNS(=O)(=O)c1c(F)cccc1F)c1ccc2c(c1)OCCO2	3991	5	12	/	-10	-6	0.5

By substructure, the compounds so far containing a cyano group (four)
SMILES	Bead autofluor	Mtb hypoxia inh	Mtb hypoxia inh growth	BJeLR lethal	Sa ugtP lethal	PrP UTR inh	RN4220 kill
CC(C)C1C(C#N)=C(N)SC(N)=C1C#N	15585	12	3	2	1	-8	3.9
N#Cc1c(Cl)nc2c(c1C#N)CCCC2	4549	-1	2	-6	2	-19	1.8
N#C/C(C(N)=O)=C1/SC=C(c2ccccc2)N1c1ccccc1	/	1	-3	-5	-1	/	0.9
N#CCSc1nc(-c2ccccc2)cs1	5050	/	/	4	-13	-30	7.4

Next structures:
SMILES	Bead autofluor	Mtb hypoxia inh	Mtb hypoxia inh growth	BJeLR lethal	Sa ugtP lethal	PrP UTR inh	RN4220 kill
COc1ccc(OC)c2c(N3CCN(C)CC3)cc(C(F)(F)F)nc12	2663	/	/	2	-3	-15	-1.2
Cc1ccc(N2C(=O)N(CC(=O)Nc3ccccc3C)C(=O)C2C)cc1 (stereo unspecified)	?	0	-6	2	8	-3	1.6
Cc1nn(CC(=O)NCc2ccccc2Cl)c(C)c1[N+](=O)[O-]	5666	14	14	-7	6	-20	4.8
O=C(C1CCCO1)N1CCN(S(=O)(=O)c2cc(C(F)(F)F)ccc2Cl)CC1 (stereo unspecified)	?	-7	0	/	-1	13	0.1
Cc1c(NC(=O)c2cc(-c3ccc(Cl)c(Cl)c3)on2)c(=O)n(-c2ccccc2)n1C	3216	15	-1	-13	2	-11	1.5
COc1ccccc1N1CCN(C(=O)COc2ccc(S(=O)(=O)NC(C)C)cc2)CC1	2598	-3	-7	4	-1	0	2.9
CCOC(=O)c1sc(N=CC2=C(O)CC(C)(C)CC2=O)c(C(=O)OCC)c1C	/	1	5	/	1	/	0.1
Cc1cc(F)ccc1NCC(=O)Nc1ccc(Br)cc1C	2115	6	4	3	-8	-11	1.5
Cc1cccc(C(=O)Nc2scc(CC(C)C)c2C(=O)O)c1	10061	5	5	-5	-8	-21	27
CCOc1ccc(C2C(C(=O)NC)=C(C)Nc3nc4ccccc4n32)cc1OC (stereo unspecified)	5719	1	9	1	9	-16	-0.9
O=c1c2ccccc2nc(/C=C/c2ccccc2O)n1-c1ccccc1O	3848	/	/	-4	/	-20	/

Screens (PubChem BioAssay)
